UCH37 inh: inhibitors of human deubiquitinating enzyme UCH37 | purified proteasome/UCH37, Ub-AMC cleavage fluorescence | inhibition, % (no concentration beside the values) | 0.33% of 330,000 active | Q9Y5K5;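 active = mean of two replicates above 20%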;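 also: 0% = compound-free wells with enzyme and 100% = wells lacking proteasome; stock transfer was 100 nL into about 20 µL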
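Material: human UCH37 enzyme supplied as purified proteasome complex / Amount: 0.15 nM proteasome as dispensed / Buffer or medium: pH 7.4 Tris-HCl (50 mM) with ovalbumin, ATP-MgCl2, DTT / Times: preincubation 30 min, reaction 25 min, room temperature / Technique: AMC fluorescence from Ub-AMC cleavage, excitation 355 nm, emission 460 nm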
Vif A3G: HIV-1 Vif–A3G interaction blockers – biochemical, TR-FRET, GST-Vif 1-94, biotin-A3G peptide, dose response retest, primary screen (AID 1117319); TR-FRET GST-Vif / biotin-A3G peptide binding; higher % means a stronger effect; test concentration not given here; strong numbers were not always called active; inhibition, %; hits with a dose series show IC50 in µM; 0.57% of 260,000 active;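 active = above the screen mean plus three standard deviations and confirmed in dose response; inconclusive = results disagree or hit not tested in dose response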;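 also: Vif residues 1-94 fused to GST binding biotinylated APOBEC3G peptide 110-148; 0% = full assay without inhibitor and 100% = GST in place of GST-Vif; retest series ran down from 100 µM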
E coli growth: E. coli growth inhibition | Escherichia coli growth, OD600, 23 h; active compounds read low | OD600 absorbance (test concentration not listed) | 0.21% of 330,000 active | AID 1053175;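 active = OD600 absorbance below the run mean of sample wells minus 3.6 SD, in any replicate, cut at about 0.56 in these data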;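 also: stock transfer was 300 nL into about 60 µL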
B2AR ag: agonists of human beta-2 adrenergic receptor inducing internalization; 0.43% of 340,000 active; Am2.2-beta2AR cells, FAP receptor internalization, flow cytometry; reference of the scale not given here; P07550; response, % (concentration not given with the values); AID 504454;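 active = response above a set limit, near 3 SD of response in nonfluorescent compounds, cut at about 42% in these data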;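 also: stock transfer was 100 nL into about 11 µL; a reference agonist was the positive control; negative values mostly stem from fluorescent compounds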
Bfl-1 A1 inh: inhibitors of the anti-apoptotic protein A1, read as caspase activation; 0.066% of 330,000 active; MEF A1-2A-BIM cells, Caspase-Glo 3/7 luminescence, 3 h; percent of clofoctol response, vehicle zero; caspase activation, % (test concentration not listed); AID 2462;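 active = over half of replicate activation scores above 10%, or exactly half above 10 with the replicate mean above 10; inconclusive = replicate mean below 10 yet half the replicates above 10; inactive = over half of replicates below 10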;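 also: wells of about 30 µL received 50 nL stock; many hits fall short of the cut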
HNF4A DNA FP: change in binding of human HNF4 alpha to DNA; activity change, % at 10 µM; HNF4a-FITC DNA binding, fluorescence polarization, 1 h; P41235; AID 1224865; 0.3% of 360,000 active; in the data active = activity change above about 30%, passing the limit was not always enough;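 also: controls were the assay level and a saturating level of protein; the project sought stronger binding though the title names inhibitors; some compounds called inactive have numbers as strong as hits; positive values seem to mean higher polarization but the record does not say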
LANA-H2A inh: blocks KSHV LANA binding to histone H2A/H2B | 0.6% of 320,000 active | Q9QR71 | inhibition, % (no concentration beside the values) | cell-free LANA-H2A/H2B peptide, fluorescence polarization | AID 2629; in the data active = inhibition mostly above about 10%, no sharp cut-off; inactive = mostly below about 6.7%;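 also: stock transfer was 7.5 nL into about 10 µL; 0% = median of vehicle wells and 100% = median of positive control wells; one replicate is shown; the record names a cut of 25% in any replicate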
Target sequence (Q9QR71 whole entry, looked up): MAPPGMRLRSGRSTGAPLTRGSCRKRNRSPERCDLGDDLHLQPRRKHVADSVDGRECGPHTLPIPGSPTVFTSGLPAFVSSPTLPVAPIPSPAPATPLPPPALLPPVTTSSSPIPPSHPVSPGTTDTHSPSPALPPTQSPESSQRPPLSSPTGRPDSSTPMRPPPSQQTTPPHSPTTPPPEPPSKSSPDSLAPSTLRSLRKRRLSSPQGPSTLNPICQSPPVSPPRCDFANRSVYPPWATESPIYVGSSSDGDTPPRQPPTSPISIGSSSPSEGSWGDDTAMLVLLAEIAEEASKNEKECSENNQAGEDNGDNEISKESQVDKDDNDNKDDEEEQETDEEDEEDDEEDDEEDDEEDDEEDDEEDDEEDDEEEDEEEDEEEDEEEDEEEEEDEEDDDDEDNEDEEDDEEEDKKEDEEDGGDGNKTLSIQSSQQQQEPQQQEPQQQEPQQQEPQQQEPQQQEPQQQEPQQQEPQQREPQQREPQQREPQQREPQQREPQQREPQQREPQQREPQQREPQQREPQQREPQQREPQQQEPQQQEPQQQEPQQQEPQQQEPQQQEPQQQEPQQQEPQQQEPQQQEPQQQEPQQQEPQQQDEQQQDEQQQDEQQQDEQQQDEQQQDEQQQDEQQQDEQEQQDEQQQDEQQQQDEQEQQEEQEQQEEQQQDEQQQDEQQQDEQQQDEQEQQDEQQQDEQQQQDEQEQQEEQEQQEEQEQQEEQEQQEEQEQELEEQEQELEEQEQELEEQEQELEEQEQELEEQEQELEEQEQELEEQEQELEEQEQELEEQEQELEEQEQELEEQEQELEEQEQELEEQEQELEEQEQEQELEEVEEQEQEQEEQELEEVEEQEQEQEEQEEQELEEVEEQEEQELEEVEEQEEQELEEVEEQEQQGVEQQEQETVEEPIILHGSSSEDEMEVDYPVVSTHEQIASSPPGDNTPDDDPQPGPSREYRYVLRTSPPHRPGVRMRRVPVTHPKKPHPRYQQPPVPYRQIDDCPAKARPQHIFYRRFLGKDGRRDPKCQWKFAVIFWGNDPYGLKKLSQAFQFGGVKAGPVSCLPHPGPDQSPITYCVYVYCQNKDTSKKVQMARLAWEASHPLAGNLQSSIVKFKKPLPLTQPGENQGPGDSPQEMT
Starred values were filed as active, the others as inactive; ? = inconclusive; . = no result given.

SMILES | UCH37 inh | Vif A3G | E coli growth | B2AR ag | Bfl-1 A1 inh | HNF4A DNA FP | LANA-H2A inh
COCCNC(=O)C(=O)Nc1cc2c3c(c1)C(C)C(=O)N3CCC2 (stereo not drawn) | 2.3 | 5.2% | 0.733 | 2.0 | 0.5 | 0.1 | -5.5
Cc1cccc(C)c1NC(=O)CN(C)C(=O)CC1Sc2ccccc2NC1=O (stereo not drawn) | 2.3 | 0.7% | 0.631 | -1.6 | 0.8 | 1.2 | 2.2
O=c1ccnc(Nc2ccc(Cl)cc2)[nH]1 | 1.7 | -2.7% | 0.681 | 0.8 | 0.0 | -0.6 | -3.5
COc1ccc(/C=N/n2c(C)nc3ccccc3c2=O)cc1OC | . | -2.5% | . | -10.0 | 0.6 | -1.6 | -7.1
O=C(Nc1sc2c(c1C(=O)O)CCCC2)C(=O)N1CCOCC1 | 8.5 | . | 0.672 | -2.1 | -0.4 | -3.4 | -0.1
COc1cc(O)oc1C=Nc1ccc(Oc2ccccc2)cc1 | -11.8 | 5.1% | 0.711 | -1.5 | 0.1 | 9.7 | -0.1
CCC(C)NC(=O)COC(=O)c1cccnc1Nc1ccccc1F (stereo not drawn) | -0.3 | 1.5% | 0.742 | -10.6 | -1.5 | 0.5 | 0.5
COc1ccc(N(CC(=O)NCCSc2ccccn2)S(=O)(=O)c2ccccc2)cc1Cl | 2.9 | . | 0.69 | 1.4 | 0.8 | 1.4 | 1.7
Cc1cccc(Nc2nc(N)c([N+](=O)[O-])c(NCCO)n2)c1 | . | -8.8% | . | -2.6 | -0.3 | 5.8 | 7.4
CC1(C)CNC(=O)CC(C)(C)N1 | . | 2.7% | . | -3.8 | 0.8 | -0.3 | 43.4*
CCCCN1C(=O)C(=O)N(CC(=O)Nc2ccc(C(N)=O)cc2)C1=O | 2.0 | . | 0.702 | 0.2 | 1.9 | 1.8 | -2.8
O=C1CC(C(F)(F)F)=NN1 | -0.9 | ? | 0.683 | -1.6 | -0.5 | -1.1 | 3.0
CCCCOc1ccc(C(=O)N/N=C/c2ccc(OCCN3CCCCC3)c(OC)c2)cc1 | . | -6.8% | . | 43.3* | 0.4 | 2.9 | -9.8
COc1ccc(/C(O)=C2/C(=O)C(=O)N(CC3CCCO3)C2c2ccc(OC)c(OC)c2)cc1 (stereo not drawn) | 3.0 | -2.8% | 0.682 | 2.4 | -0.4 | 4.0 | -1.9
CC(=O)Nc1cccc(C(=O)NNC(=O)c2ccc(-n3cnnn3)cc2)c1 | 3.4 | -8.9% | 0.674 | -1.6 | -0.4 | -1.6 | 3.5
CCCN(CCC)C(=O)C1c2ccccc2Oc2ccccc21 | -4.5 | 0.5% | . | -4.0 | 0.8 | -68.9 | 1.7
Cn1cccc1/C=N/N1CCN(Cc2ccccc2)CC1 | . | 0.1% | . | -5.8 | 0.1 | -1.5 | -7.0
COc1ccc(-c2ccc3oc(-c4ccsc4)c(-c4ccc(OC)cc4)c3c2)cc1 | -0.3 | . | 0.721 | 2.4 | -0.4 | 0.1 | -8.3
COc1ccccc1CC(=O)NCCc1c[nH]c2ccccc12 | 3.5 | . | 0.691 | -0.1 | 0.3 | 0.8 | 0.2
CC(C)(C)c1ccc(NC(=O)CSc2n[nH]c(=O)n2-c2cccnc2)cc1 | -2.9 | . | 0.693 | 2.4 | 2.6 | -1.2 | -0.8
O=C(Cc1c(Cl)cccc1Cl)Nc1ccc(S(=O)(=O)Nc2ncccn2)cc1 | 5.7 | 0.7% | 0.682 | -3.9 | 0.1 | -2.0 | -1.3
CCc1ccc(NC(=O)C2CCCN2S(=O)(=O)c2ccc3c(c2)n(C)c(=O)c(=O)n3C)cc1 (stereo not drawn) | -30.2 | 6.3% | 0.663 | -2.6 | 1.1 | -0.3 | 3.5
COc1ccc(C(=O)Nc2ncc(C)s2)cc1S(=O)(=O)N1CCOCC1 | 4.1 | 3.3% | 0.692 | -10.0 | 0.7 | 0.7 | 0.5
Cc1cccc(OCCn2c(S(=O)(=O)O)nc3ccccc32)c1 | -1.2 | 3.5% | 0.673 | -0.2 | 0.6 | 1.3 | -5.9
Cc1cccc(C2=NN(c3ccc(Br)cc3)[C@@H](C(=O)N3CCOC3=O)[C@@H]2c2ccc([N+](=O)[O-])cc2)c1 | 6.2 | -5.1% | 0.728 | 9.8 | . | 2.6 | .
CC(C)c1ccc(COc2ccc(C(=O)N3CCOCC3)cc2)cc1 | 5.3 | . | 0.681 | 5.1 | 1.1 | -4.1 | 1.9
O=C(O)CSc1nnnn1-c1ccc2c(c1)OCCO2 | 4.1 | 17.8% | 0.702 | -2.2 | -0.8 | 1.6 | 3.1
Cc1cccc(Cc2ccc(Cl)nn2)c1 | -2.7 | 3.4% | 0.692 | -9.1 | -0.6 | 0.8 | -6.1
CCSc1nc2c(c(=O)[nH]c(=O)n2C)n1C/C=C(/C)Cl | 2.4 | 9.6% | 0.702 | 0.1 | -0.3 | -3.9 | -4.9
Cc1ccc(OCc2cc(C(=O)N(C)Cc3nccn3C)no2)cc1C | 3.5 | . | 0.673 | -1.4 | -0.2 | 0.9 | -0.6
Cc1ccccc1-n1c(=O)cc(N2CCN(C(=O)c3ccco3)CC2)[nH]c1=O | 3.0 | 1.1% | 0.735 | -8.8 | 2.2 | -3.2 | 10.6
COCCn1c(SCC(=O)Nc2ccc(F)cc2)nc2c(oc3ccccc32)c1=O | . | -7.7% | . | -3.3 | 0.7 | 1.3 | 0.4
O=C(CCCCn1c(=S)[nH]c2ccsc2c1=O)NCc1ccco1 | 2.6 | ? | 0.649 | 0.7 | -0.3 | 0.8 | -2.8
Cc1cccc(C2N(c3nccs3)C(=O)C3CCCN32)c1 (stereo not drawn) | -2.4 | -4.5% | 0.674 | -3.7 | 1.1 | 5.6 | 2.0
CCN(C[C@H]1N[C@@](CC)(C(=O)OC)[C@H]2C(=O)N(Cc3ccccc3)C(=O)[C@@H]12)C(=O)Nc1ccc(C)cc1 | 4.4 | 7.2% | 0.708 | -3.1 | . | 3.6 | .
Cc1ccccc1NS(=O)(=O)c1nnc(NC(=O)c2ccc(Cl)cc2)s1 | 3.2 | . | 0.753 | 1.6 | 0.9 | 6.7 | 2.8

Fetched by compound from the entries so far:
SMILES | UCH37 inh | Vif A3G | E coli growth | B2AR ag | Bfl-1 A1 inh | HNF4A DNA FP | LANA-H2A inh
COCCn1c(SCC(=O)Nc2ccc(F)cc2)nc2c(oc3ccccc32)c1=O | . | -7.7% | . | -3.3 | 0.7 | 1.3 | 0.4
Cc1ccc(OCc2cc(C(=O)N(C)Cc3nccn3C)no2)cc1C | 3.5 | . | 0.673 | -1.4 | -0.2 | 0.9 | -0.6

More results follow:
SMILES | UCH37 inh | Vif A3G | E coli growth | B2AR ag | Bfl-1 A1 inh | HNF4A DNA FP | LANA-H2A inh
Nc1c(Br)cc(Br)c2c1C(=O)c1c(cccc1S(=O)(=O)O)C2=O | 9.1 | -1.0% | 0.708 | 4.7 | . | 1.1 | .
CCOc1c(CNCCNC(=O)c2nonc2N)cccc1OC | 0.2 | -10.5% | 0.653 | 0.2 | 0.5 | 1.2 | 1.9
CNC(=O)CN1C(=O)NC(Cc2c[nH]c3ccccc23)C1=O (stereo not drawn) | -0.1 | -6.2% | 0.665 | 14.5 | 0.3 | 1.1 | 2.7
CCCCCC1(C)NC(=S)N(c2ccccc2)N1 (stereo not drawn) | 0.0 | 0.1% | 0.675 | -5.0 | -0.3 | -2.7 | 2.3
Cc1ccc(NC(=O)CCn2c(=O)oc3ccccc32)c(C)c1 | 0.9 | 9.7% | 0.727 | -3.8 | 1.6 | 3.0 | -0.1
COc1ccc(CNC(=O)c2c(O)c3cccc4c3n(c2=O)CCC4)cc1OC | -1.4 | -8.4% | 0.752 | 1.1 | -1.1 | 0.9 | -10.8
O=C(O)Cn1c(SCc2ccccc2)nc2ccccc21 | -0.9 | 6.1% | 0.694 | 0.5 | -0.8 | -1.1 | 1.7
CCNC(=O)CC1C(=O)N(c2ccc(C)cc2)C(=O)N1Cc1ccccn1 (stereo not drawn) | 0.7 | 18.2% | 0.714 | 4.2 | 0.1 | -0.1 | -2.2
C=CCn1c(O)c(CN2CCN(Cc3ccccc3)CC2)c(C)c(C#N)c1=O | -1.9 | 8.2% | 0.716 | -2.2 | -0.1 | -13.8 | 10.7
O=C1COc2ccc(C(=O)COC(=O)CNC(=O)C3CCCCC3)cc2N1 | 0.2 | -1.6% | 0.703 | 1.8 | 0.1 | 3.2 | 0.0
COc1ccc(CN2C(=O)c3cccnc3C2=O)cc1S(=O)(=O)N1CC(C)Oc2ccccc21 (stereo not drawn) | 0.9 | 23.5% | 0.69 | 5.2 | 0.5 | -2.8 | 2.7
Cc1ccc(NC(=O)Nc2cc(Cl)ccc2C2COC(=O)C2=N)cc1 (stereo not drawn) | -22.5 | . | 0.692 | 9.9 | -2.5 | 2.6 | -4.0
O=C(Cc1ccccc1)N/N=C/c1cccs1 | . | -5.9% | . | -2.3 | 0.4 | 0.8 | 3.2
O=C(O)C#Cc1cccc2ccccc12 | 1.2 | 21.7% | 0.678 | 10.2 | -2.5 | 2.6 | 5.4
CC(=O)N(CC(=O)O)c1ccccc1C(=O)O | 1.6 | 6.7% | 0.738 | -5.3 | -1.6 | 2.0 | -6.9
CC1Oc2ccccc2N(CC(=O)NCCN2CCOCC2)C1=O (stereo not drawn) | . | . | . | -2.9 | -0.4 | 0.3 | 5.3
O=C(NCCCn1ccnc1)c1noc2c1CCCC2 | 2.7 | 12.2% | 0.689 | -0.7 | 0.6 | -3.1 | 2.3
Cc1ccc(C(=O)c2cc3ccccc3o2)cc1[N+](=O)[O-] | 4.2 | -5.6% | 0.678 | -11.5 | -2.8 | -1.6 | -0.9
COc1ccc(N(CC(=O)Nc2ccc3c(c2)OCO3)S(=O)(=O)c2c(C)nn(C)c2C)cc1 | 2.8 | 3.5% | 0.66 | 2.8 | 0.2 | -0.9 | 4.7
Cc1ccc(C(=O)N2CCNC(=O)C2CC(=O)Nc2ccc(F)cc2)cc1C (stereo not drawn) | . | 0.7% | . | 3.2 | -1.2 | 1.8 | 1.1
COC(=O)c1sccc1NC(=O)CSCC(=O)O | 2.3 | . | 0.661 | 2.8 | 0.1 | 1.0 | 4.3
O=C1/C(=C\c2ccccn2)SC(=S)N1Nc1ncc(C(F)(F)F)cc1Cl | 3.2 | 2.9% | 0.667 | 4.6 | 1.3 | -2.1 | -3.8
CCCCC1CCC(C(=O)N(CCOC)c2c(N)n(CC(C)C)c(=O)[nH]c2=O)CC1 (stereo not drawn) | -2.6 | 1.0% | 0.647 | -0.2 | 0.2 | -0.2 | 0.1
CCn1c(CCC(N)=O)nnc1SCC(=O)Nc1cccc(S(=O)(=O)N2CCCC2)c1 | 1.8 | . | 0.721 | -9.5 | 0.6 | 1.9 | 1.3
CCOC(=O)C1(Cc2ccccc2)CCN(Cc2csc(C(C)=O)c2)CC1 | 3.0 | ? | 0.676 | -4.6 | -0.3 | -2.6 | -2.2
COc1ccc2cc(CCNC(=O)c3ccco3)c(=O)[nH]c2c1 | -0.1 | -1.4% | 0.694 | -9.3 | 1.5 | -2.1 | -5.3
COc1ccc(F)cc1C(=O)C1CCCN(Cc2ccc3c(c2)OCCO3)C1 (stereo not drawn) | -11.1 | 4.5% | 0.694 | 20.5 | 0.6 | -2.3 | 5.2
CSCCC(NC(=O)c1ccc(Cl)cc1)C(=O)OCC(=O)N1CCCC1=O (stereo not drawn) | -2.2 | -4.4% | 0.717 | 3.9 | 0.4 | 0.5 | 2.1
CCN1C(=O)C(CC(=O)Nc2cccc(C(C)=O)c2)S/C1=N\c1ccccn1 (stereo not drawn) | . | -0.1% | . | -0.6 | 0.1 | -1.9 | 0.8
COc1cc2c(cc1NC(=O)c1cncc(Br)c1)oc1ccccc12 | -49.2 | -22.7% | 0.703 | -2.2 | 0.0 | 2.6 | -1.9

Compound activity: PubChem, several laboratories
